From PubChem BioAssay
MT1-MMP promoter = inhibitors of MT1-MMP promoter transcription, cell-based, luciferase reporter, luminescence (AID 618); MT1-MMP promoter luciferase reporter cells, luminescence; calls from a first round at 10 µM; hits with a dose series show EC50 in µM; actives 0.62% (n = 87,000);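 active means over half of the reporter light lost at 10 µM or EC50 under 50 µM; inactive means the rest and hits that failed the dose series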;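 further: actives suppress MT1-MMP promoter-driven transcription so potencies describe inhibitors; HT1080 fibrosarcoma cells; overnight exposure; toxic or luciferase-blocking compounds were not removed from the actives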
WNV NS2B-NS3 inh = inhibitors of WNV NS2B-NS3 protease, primary screen, biochemical, fluorogenic substrate; Genome polyprotein (West Nile virus), P06935; z-score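 (tested at a level between 10 and 100 µM)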; fluorogenic substrate Ex360/Em465; stronger effect = lower value; AID 577, 2007; actives 0.18% (n = 65,000);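 active means z-score at -3 or under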;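 further: score is relative to mean and spread of the compound wells of a plate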
Target sequence (P06935 1371-1501 limits assumed): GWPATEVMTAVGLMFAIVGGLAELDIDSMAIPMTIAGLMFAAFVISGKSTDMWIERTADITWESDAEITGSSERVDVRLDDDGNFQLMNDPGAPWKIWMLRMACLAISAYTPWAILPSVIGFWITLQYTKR
Target sequence (P06935 1502-1679 limits assumed): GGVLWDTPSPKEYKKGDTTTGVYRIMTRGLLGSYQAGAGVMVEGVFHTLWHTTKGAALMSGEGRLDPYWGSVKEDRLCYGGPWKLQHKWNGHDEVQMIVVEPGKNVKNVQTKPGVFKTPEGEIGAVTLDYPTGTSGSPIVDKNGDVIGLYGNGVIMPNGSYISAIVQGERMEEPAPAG
Hsc70 = Hsc70 inhibitors, probe displacement, primary screen, biochemical, fluorescence polarization (AID 568); Heat shock cognate 71 kDa protein (Homo sapiens); Hsc70 fluorescence polarization, probe displacement; higher % means a stronger effect; strong numbers were not always called active; displacement, % at 20 µM, or IC50 in µM where a hit was titrated; 83,000 tested, under 10 active;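 active means displacement above 50% without optical interference and an IC50 on retest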;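 further: ATPase domain with a fluorescein-tagged ATP probe; 0% = vehicle and 100% = excess ADP; read after one hour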
An asterisk follows results filed as active; i = inactive; · = no result given; + = active, no number. Not all compounds are listed; rates above refer to the full screens.

SMILES	MT1-MMP promoter	WNV NS2B-NS3 inh	Hsc70
CCCCSc1nc(O)c(Cc2ccccc2)c(=O)[nH]1	i	·	5.5%
Cc1cc(NC(=O)CSc2ccc3nnc(-c4cccnc4)n3n2)no1	i	-0.97	-2.4%
COc1cc(NC(=O)c2cccs2)c(OC)cc1NC(=O)c1ccco1	i	-0.83	3.4%
CCOC(=O)N1CCN(C(=O)c2ccc(C#CC3(O)CCCCC3)cc2)CC1	i	-0.22	-0.3%
CCCc1nnc(NC(=O)c2cccs2)s1	i	·	-0.2%
CCn1c(SCC(=O)c2ccc(Cl)cc2)nnc1-c1cccs1	i	·	4.5%
O=P(OC1CCS(=O)(=O)C1)(c1ccccc1)c1ccccc1 (stereo not given)	i	-1.2	-0.8%
O=C(Nc1ncc(Br)s1)C(Cc1ccccc1)n1cccc1 (stereo not given)	i	0.08	-0.3%
COC(=O)c1nnc(-c2ccccc2)c(-c2ccccc2)n1	i	1.4	4.0%
CC(C)CCNC(=O)CN(CCCN1CCOCC1)C(=O)Cn1nnc(-c2ccc(F)cc2)n1	i	0.52	0.7%
COC(=O)[C@@H](NC(=O)NC1CCCc2ccccc21)C(C)C (stereo not given in full)	i	-0.37	6.3%
COC(=O)c1c(NC(=O)CN2CCN(C(=O)c3ccco3)CC2)c2c(C)cccc2n1C	i	0.28	3.1%
COCCCNc1ncnc2sc3c(c12)CCC(C)C3 (stereo not given)	i	·	-1.6%
CC(C)C(NS(=O)(=O)c1ccc2c(c1)oc(=O)n2C)C(=O)N1CCN(c2ccccc2F)CC1 (stereo not given)	i	1.1	8.2%
CC(C)(C)c1ccc(C(=O)Nc2ccccc2NC(=O)c2ccco2)cc1	i	·	0.7%
O=C(Cn1nnc2ccccc21)NC1CCCCC1	i	0.75	-5.2%
Cc1ccc(-c2nc(-c3ccccn3)no2)cc1	<0.098µM*	-0.2	2.5%
CCOC(=O)N1CCC(NC(=O)C2CCN(S(=O)(=O)N3CCC(C)CC3)CC2)CC1	i	-0.74	0.5%
CCC(Sc1nc2n[nH]c(C)c2c(=N)n1-c1cc(Cl)ccc1C)C(=O)N1CCOCC1 (stereo not given)	i	0.62	-0.1%
Cc1ccc(C2=N/C(=C/c3cccs3)C(=O)N2Nc2ccccc2)cc1	i	·	-4.4%
O=C(COc1ccc(F)cc1)OCCN1CCOCC1	i	-0.23	2.6%
COc1ccc(CCNC(=O)c2c[nH]c3ccccc3c2=O)cc1OC	i	0.83	-1.9%
CCOC(=O)C1CCCCN1Cc1ccccc1C(F)(F)F (stereo not given)	i	-2.2	0.5%
O=C(COc1cc(Cl)c(Cl)cc1Cl)NCCN1CCOCC1	i	-0.95	2.8%
COC(=O)c1[nH]c(=O)c2ccccc2c1OCc1ccccc1	i	-0.4	0.5%
Following part:
SMILES	MT1-MMP promoter	WNV NS2B-NS3 inh	Hsc70
CCC(C)(C)n1nnnc1C(c1ccccn1)N1CCCCC1 (stereo not given)	i	·	0.5%
Cc1ccc(OCC(=O)NC2=NCCS2)cc1	i	·	-8.4%
Oc1ccc(COCc2ccccc2)c2cccnc12	i	3.4	2.8%
CC1(C)CC(C(=O)Nc2nccs2)CCO1 (stereo not given)	i	1.8	3.0%
CC(C)CCNC(=O)c1ccc(CSCc2cccc(F)c2)o1	i	·	-2.7%
Cc1ccc(S(=O)(=O)N2CCN(S(=O)(=O)N(C)C)CC2)c(C)c1	i	·	0.8%
CCN1C(=O)/C(=C2/C=CC=CN2C)SC1=S	i	0.41	-3.4%
O=C(CSc1n[nH]c(-c2cccs2)n1)N1CCN(S(=O)(=O)c2ccccc2)CC1	i	1.1	-4.7%
CCc1c(C)c2ccc(OCC(=O)OC)cc2oc1=O	i	-0.86	-3.5%
CN1CCc2c(sc3nc(SCC(=O)N4CCOCC4)nc(N)c23)C1	i	0.56	4.8%
CN(C)C(=O)CSc1nnc(-c2cccnc2)n1-c1ccccc1	i	0.23	4.5%
O=C1CCCN1CC(CN1CCOCC1)Sc1nc2ccccc2c(=O)n1-c1ccccc1 (stereo not given)	i	-1.2	-0.5%
CC(=O)Nc1nn(C)c2nc3cc(C)ccc3cc12	i	0.36	-3.2%
CCn1c(SCC(=O)Nc2ccc(S(N)(=O)=O)cc2)nnc1-c1ccccc1OC	i	·	3.2%
Cc1ccc(-c2cnc(NC(=O)CCC(=O)N(C)Cc3ccccc3)n2C)cc1	i	·	0.7%
N#Cc1ccc(NC(=O)c2cc3cc4c5c(c3oc2=N)CCCN5CCC4)cc1	i	-0.05	100%
Fc1ccc(N2CCN(c3nc(-c4ccco4)cc(C(F)(F)F)n3)CC2)cc1	i	-0.49	2.9%
CCOC(=O)c1sc(N)c(C#N)c1CSc1nc2ccc(OCC)cc2[nH]1	i	-0.22	-7.6%
O=C(CSc1nnc(-c2ccccc2Br)o1)Nc1cccc2ccccc12	i	-0.35	-3.5%
CCN(CC)CCn1cnc2c([nH]c3cccc(OC)c32)c1=O	i	1.5	0.9%
Cc1ccc(NS(=O)(=O)c2ccc(CCC(=O)N3CCOCC3)cc2)cc1	i	0.43	6.7%
O=c1cc(N2CCCCC2)nc2n1CCCS2	i	0.18	-2.6%
O=C(CN1CCCN(S(=O)(=O)c2ccc(F)cc2)CC1)Nc1ccccc1Br	i	-0.38	2.5%
O=S(=O)(c1cccc2cccnc12)n1cnc2ccccc21	i	0.88	0.0%
Cc1cc(C)n(-c2nncc(-c3ccccc3)n2)n1	i	0.48	-3.9%

Part of the list above, as labelled records:
> Cc1cc(NC(=O)CSc2ccc3nnc(-c4cccnc4)n3n2)no1
- MT1-MMP promoter: i
- WNV NS2B-NS3 inh: -0.97
- Hsc70: -2.4%
> COc1cc(NC(=O)c2cccs2)c(OC)cc1NC(=O)c1ccco1
- MT1-MMP promoter: i
- WNV NS2B-NS3 inh: -0.83
- Hsc70: 3.4%
> CCOC(=O)N1CCN(C(=O)c2ccc(C#CC3(O)CCCCC3)cc2)CC1
- MT1-MMP promoter: i
- WNV NS2B-NS3 inh: -0.22
- Hsc70: -0.3%

The list continues:
SMILES	MT1-MMP promoter	WNV NS2B-NS3 inh	Hsc70
Cc1ccc(S(=O)(=O)N2CCC(C(=O)NCCN3CCCCCC3)CC2)cc1	i	-0.22	1.9%
Cc1cn(CC2COC(C)(C)O2)c(=O)[nH]c1=O (stereo not given)	i	0.9	-3.8%
N#CCCN(CCC#N)C(=O)c1ccc(Cl)cc1	i	-0.09	1.6%
O=c1[nH]nc(Cc2ccc(Cl)cc2Cl)c2ccccc12	i	·	2.5%
COc1cc(NC(=O)CSCc2cnn(-c3ccccc3)c2-n2cccc2)cc(OC)c1	i	-0.22	-0.5%
CCCN1C(=O)c2cc(C(=O)NCc3cccs3)ccc2C1O (stereo not given)	i	0.25	2.0%
O=C(Nc1cccnc1)c1cnn2cccnc12	i	0.48	7.4%
CC(C)=C1C2CC2C2C(C(=O)O)C12 (stereo not given)	i	0.62	3.9%
CC(CCc1ccco1)NC(=O)Cn1ncc2c(=O)oc3ccccc3c21 (stereo not given)	i	-1	-3.8%
COc1c(Cl)cc(Cl)cc1C(=O)n1nc(C)cc1C	i	·	6.0%
CCOc1cc(CNn2nnnc2N)ccc1OCC(=O)NC(C)(C)C	i	·	-1.6%
CNC(=O)CN(C1CCCCC1)S(=O)(=O)c1ccc(F)cc1	i	0.06	3.0%
CC1=NN(C(N)=S)C(=O)C1N=Nc1c(C)cc(C)cc1C (stereo not given)	i	·	2.4%
CCc1nnc(NC(=O)CSc2nccn2-c2cccc(C)c2)s1	i	-0.81	3.5%
Cc1cc(C)nc(SCc2nnc(SCc3ccccc3Cl)o2)n1	i	-0.83	4.9%
CCCCOP(=O)(c1ccc(N(C)C)cc1)C(O)c1ccccc1F (stereo not given)	i	0.5	-3.7%
O=C(CSc1nc2ccccc2[nH]1)Nc1cc(C(F)(F)F)ccc1N1CCOCC1	i	-0.54	-0.8%
COc1ccc(-c2nc3ccccc3s2)cc1O	+	-1	-1.0%
O=C(Nc1ccc(-c2nc3ccccc3o2)cc1)c1ccc2c(c1)OCO2	i	-0.5	-11%
O=CN1CC(=O)N(c2ccccc2)c2c([nH]c3ccccc23)C1	i	-1	0.3%
CCOc1ccc(-c2noc(CCC(=O)NC)n2)cc1OCC	i	-0.7	0.8%
Oc1ccc2ccccc2c1C=NC12CN3CCN(CN(C3)C1)C2	i	-1	-1.9%
CCOC(=O)C1=C(C)N(C2CCCCC2)C(=O)C1	i	-0.34	13%
CCOc1cc(C)nc(Oc2ccc(=O)[nH]n2)n1	i	-0.12	-5.8%
CCOC(=O)c1sc(NC(=O)CSc2nnc(-c3ccco3)n2CC)c(C(=O)OCC)c1C	i	0.21	-13%
(listing goes on)
SMILES	MT1-MMP promoter	WNV NS2B-NS3 inh	Hsc70
CCn1c(Cc2ccccc2)nnc1SCC(=O)Nc1nc(C)cs1	i	·	-2.2%
O=C(c1ccc2c(c1)OCCO2)N(c1ccccn1)C1CCCCC1	i	-0.03	2.4%
Cc1cc(C)nc(SCc2nnc(SCC(=O)Nc3nc(-c4ccccc4)cs3)n2C)n1	i	·	2.7%
CCOC(=O)c1ccc(NC(=O)c2cc3ccccc3o2)cc1	i	-0.44	-4.9%
Cc1ccc2c(c1)c(=O)c1c3n2CCN(C(=O)CCl)C3CC1 (stereo not given)	+	·	3.5%
COc1ccc(-c2noc(C3CCCN(S(=O)(=O)c4cccc(Cl)c4C)C3)n2)cc1OC (stereo not given)	i	0.65	-1.0%
N#C/C(=N\Nc1ccccc1)C(=N)N1CCCCC1	i	·	2.5%
CC(C)CNC(=O)C1CCN(c2ccc(S(=O)(=O)N3CCOCC3)cc2)CC1	i	-1.1	-5.6%
COc1ccc(-c2nnc(SCC(=O)Nc3ccccc3OC)o2)cc1	i	-0.28	-2.6%
CC1(C)CCCN(C(=O)N2c3ccccc3Sc3ccccc32)C1	i	·	5.5%
O=C(OCC(=O)N1CCOCC1)c1ccc(Cl)nc1	i	·	1.8%
CC(=O)O[C@H]1C[C@@H]2CC[C@@H]3[C@H](CC[C@@]4(C)[C@H]3C[C@H]([N+]3(C)CCCCC3)[C@@H]4OC(C)=O)[C@@]2(C)C[C@@H]1[N+]1(C)CCCCC1	i	0.47	-3.8%
CSc1nc2sc3c(c2c2nnnn12)CCC3	i	0.12	5.2%
CCOC(=O)C1=C(C)N(C)C(=O)NC1c1cc2c(cc1Br)OCO2 (stereo not given)	i	0.54	0.5%
COc1cc(C2C(C#N)=C(N)Oc3cc(O)ccc32)cc(OC)c1OC (stereo not given)	i	·	8.4%
CC(=O)N1CCN(c2ccc(NC(=O)c3ccc4c(c3)OCO4)cc2)CC1	i	-0.29	130%
O=C(COc1ccccc1)N1CCN(C(=O)c2ccco2)CC1	i	·	-3.8%
Cc1cc(S(=O)(=O)NCC(C)C)ccc1OCC(=O)NCc1ccccn1	i	-1.1	-0.5%
CCOC(=O)/C(C#N)=C(/C)c1ccc(OC)cc1	i	-0.27	-1.9%
OCCNc1nc2ccccc2n1CCN1CCCCC1	i	·	3.2%
Cc1cc2nc(SCC(=O)Nc3nonc3C)c3c(c2cc1C)CCCC3	i	0.69	-7.7%
CSc1ccccc1N=Cc1nc(-c2ccccc2)oc1O	i	0.1	-5.5%
Cc1noc(C)c1S(=O)(=O)NC1CCCc2ccccc21 (stereo not given)	i	0.02	2.1%
c1ccc(-c2cnc(CSc3ncnc4sccc34)o2)cc1	i	0.06	-29%
COc1ccc(NC(=O)CN2CCN(CC(=O)Nc3ccccc3Cl)CC2)cc1Cl	i	1.4	-2.3%

For reference, part of the list above:
SMILES	MT1-MMP promoter	WNV NS2B-NS3 inh	Hsc70
COc1ccc(-c2noc(C3CCCN(S(=O)(=O)c4cccc(Cl)c4C)C3)n2)cc1OC (stereo not given)	i	0.65	-1.0%
N#C/C(=N\Nc1ccccc1)C(=N)N1CCCCC1	i	·	2.5%

Part of the list above, showing only Hsc70 and MT1-MMP promoter:
| SMILES | Hsc70 | MT1-MMP promoter |
| --- | --- | --- |
| Cc1noc(C)c1S(=O)(=O)NC1CCCc2ccccc21 (stereo not given) | 2.1% | i |
| COc1ccc(CCNC(=O)c2c[nH]c3ccccc3c2=O)cc1OC | -1.9% | i |
| CCn1c(SCC(=O)Nc2ccc(S(N)(=O)=O)cc2)nnc1-c1ccccc1OC | 3.2% | i |
| O=C(Nc1ncc(Br)s1)C(Cc1ccccc1)n1cccc1 (stereo not given) | -0.3% | i |

Further entries.
SMILES	MT1-MMP promoter	WNV NS2B-NS3 inh	Hsc70
Cc1ccc(-c2cc(C(F)F)nc(NCC3CCCO3)n2)cc1 (stereo not given)	i	0.42	-2.1%
CCN1CCN(S(=O)(=O)c2ccc(Br)s2)CC1	i	0.49	-1.3%
COc1ccc2nc(-c3ccc(N)cc3)[nH]c2c1	i	·	-4.4%
CCOC(=O)C1C(=O)CC(C)(O)C(C(=O)OCC)C1c1ccc(OCC)cc1 (stereo not given)	i	0.69	-0.1%
NC(=O)Cn1nnc(-c2ccc(C(F)(F)F)cc2)n1	i	-0.74	4.3%
Cc1ccc2c(c1)c(C)c(C)n2CC(O)Cn1nnc2ccccc21 (stereo not given)	i	0.04	-2.5%
O=C(Nc1ccccc1NC(=O)c1c(F)c(F)c(F)c(F)c1F)c1c(F)c(F)c(F)c(F)c1F	i	-0.08	-7.7%
COc1cc(/C=C2/C(=N)N3C=CSC3=NC2=O)ccc1OCCCOc1cc(C)ccc1C	i	·	-2.2%
O=C(CSC1=NCCS1)NCc1ccco1	i	0.85	0.9%
Cc1ccc2c(c1)N(CC(=O)Nc1ccc3c(c1)OCCO3)C(=O)CO2	i	-0.65	4.9%
COc1ccc2c(c1)-c1nc(NC(=O)c3cccs3)sc1CC2	i	-0.07	4.6%
